Source: PubChem BioAssay (National Center for Advancing Translational Sciences (NCATS))
Vaccinia mCherry = vaccinia inhibition (mCherry reporter). Vaccinia virus mCherry reporter infection, fluorescence; about a quarter of the inactives have no number. Potency, µM (series often up to 36.5 µM), for the others: top-dose activity change, negative = inhibition, actives largely listed as inhibitors. 310,000 compounds, 0.63% hits; active = well fitted inhibition curve with a large enough effect; inconclusive = small, poorly fitted or top-dose-only effect; inactive = no such curve, though single readings can be large or run the other way; tested in A549 cells; further: nearly all actives have a fitted effect of over 35% in size; inactives centre near -10
VACV Venus inh = vaccinia inhibition (Venus reporter); Vaccinia virus Venus reporter expression, fluorescence; Potency, µM (titrated, usually from 36.5 µM), for the others: at the highest dose activity change, negative = inhibition, usual class: inhibitors; 330,000 compounds, 0.46% hits; AID 720580; active means well fitted inhibition curve with a large enough effect; inconclusive means small, poorly fitted or top-dose-only effect; inactive means no such curve, though single readings can be large or run the other way; tested in A549 cells; further: nearly all actives have a fitted effect of over 30% in size; inactives centre near -10
Starred values were filed as active, the others as inactive; [ ] = dose if it differs, or a comment. On the % scale 0 is the no-effect control and ±100 the full control effect; potency means the concentration at half of the fitted maximal effect.

Screening O=C(CN1CCN(C(=O)c2cccs2)CC1)NC1CCCCC1 returned VACV Venus inh inconclusive.
Screening CCOC(=O)C1C(C(=O)OC)=C(c2ccc(OC)cc2)c2ccc(OC)cc2N1S(=O)(=O)C(F)(F)F (stereo not drawn) returned Vaccinia mCherry -25% and VACV Venus inh -7%.
CN(C)c1ccc(C(=C2c3ccccc3-c3ccccc32)c2ccc(N(C)C)cc2)cc1 was read as Vaccinia mCherry 41%[activator] and VACV Venus inh 5%.
Screening O=C(O)c1ccc(NS(=O)(=O)c2ccc3nnn(O)c3c2)cc1 returned VACV Venus inh -5%.
`CCCCC(=O)Nc1cccc2c1C(=O)N(c1ccccc1)C2=O` gave Vaccinia mCherry -11%[1.46 µM] and VACV Venus inh 3%.
`CC(C(=O)N1CCOCCOCCOCC1)N1C(=O)c2ccccc2C1=O` (stereo not drawn) gave Vaccinia mCherry inactive and VACV Venus inh -3%.
Screening O=C(NCC1CCCO1)c1cc([N+](=O)[O-])ccc1Cl (stereo not drawn) returned Vaccinia mCherry inactive and VACV Venus inh -8%.
Screening CC1CCCCC1NC(=O)C1CCN(S(=O)(=O)c2cccc3nonc23)CC1 (stereo not drawn) returned Vaccinia mCherry -5% and VACV Venus inh 6%.
`O=C(/C(Br)=C/Nc1cc(Cl)ccc1Cl)C(F)(F)F` gave Vaccinia mCherry -2% and VACV Venus inh 7%.
For CN(CC(=O)NCC1CCCO1)S(=O)(=O)c1cc(Cl)ccc1Cl (stereo not drawn) the results were Vaccinia mCherry -6% and VACV Venus inh -16%.
For CC(C)OP(=O)(OC(C)C)C(Nc1ccccc1)c1cccc([N+](=O)[O-])c1 (stereo not drawn) the results were Vaccinia mCherry -18% and VACV Venus inh -1%.
`Cn1nc(-c2ccccc2)c(-c2nc(-c3ccc(Cl)cc3)no2)c1Cl` gave Vaccinia mCherry -10% and VACV Venus inh 3%.
For O=C(NCc1ccco1)c1ccc2c(=O)n(CC3CCCO3)c(=S)[nH]c2c1 (stereo not drawn) the results were Vaccinia mCherry inactive and VACV Venus inh -15%.
Screening Cc1nc2ccccc2c(=O)n1NC(=O)Nc1ccccc1 returned Vaccinia mCherry inactive and VACV Venus inh -14%.
For COc1ccc(C(=O)CN2C3=NCCCN3c3ccccc32)cc1OC the results were Vaccinia mCherry -18% and VACV Venus inh -11%.
CCOc1cc(C)c(Cl)cc1S(=O)(=O)N(CC)CC was read as VACV Venus inh -13%.
COc1cc(Br)cc2cc(S(=O)(=O)c3ccccc3)c(=O)oc12 was read as Vaccinia mCherry -8% and VACV Venus inh 1%.
For CCOC(=O)c1nn(-c2ccc(C)cc2)c(=O)cc1OCC(=O)Nc1cccc(OC)c1 the results were Vaccinia mCherry -18% and VACV Venus inh -16%.
For CCCCOC(=O)c1ccc(OC(=O)c2sc3ncn(Cc4cccc(F)c4)c(=O)c3c2C)cc1 the results were Vaccinia mCherry -5% and VACV Venus inh -8%.
Screening Cc1ccc(N(CC(=O)N2CCN(c3ccc(F)cc3)CC2)S(=O)(=O)c2c(C)nn(C)c2C)cc1 returned Vaccinia mCherry -11% and VACV Venus inh -23%.
For CCc1nc2nc(C)cc(Nc3ccc(OC)cc3)n2n1 the results were Vaccinia mCherry -16% and VACV Venus inh -16%.
For COc1ccc(C(CNC(=O)c2cc(S(=O)(=O)N3CCCCC3)ccc2C)N2CCCC2)cc1 (stereo not drawn) the results were Vaccinia mCherry -26% and VACV Venus inh -24%.
Screening Cc1ccc(NC(=S)NCc2ccc3c(c2)OCO3)cc1C returned Vaccinia mCherry -17% and VACV Venus inh -12%.
`CC(C)C[C@@H](CN1CCC[C@@H]1CN1C(=O)C(=O)NC[C@@H]1Cc1ccccc1)N1C[C@H](Cc2ccccc2)N(CC2CCCCCC2)C(=O)C1=O` gave Vaccinia mCherry -22% and VACV Venus inh inconclusive.
For NC(=O)c1ncn([C@@H]2O[C@H](CNCc3cc(Br)ccc3OCc3ccccc3)[C@@H](O)[C@H]2O)n1 the results were Vaccinia mCherry inactive and VACV Venus inh -7%.
Cc1cc2c(cc1C)NP(=S)(c1ccccc1)N2 was read as Vaccinia mCherry inconclusive and VACV Venus inh -5%.
Screening CCOC(=O)Cn1cc(C(=O)OC)c2ccccc21 returned Vaccinia mCherry inactive and VACV Venus inh -7%.
Screening O=C(Nc1ccccc1)c1cc(S(=O)(=O)Nc2cccnc2)ccc1Cl returned Vaccinia mCherry -1% and VACV Venus inh -9%.
For CC(=O)C1=C(O)C(CSCc2ccccc2)N(C)C1=O (stereo not drawn) the results were Vaccinia mCherry -12% and VACV Venus inh 3%.
CC(C)(C)c1ccc(C(=O)Nn2cnnc2)cc1 was read as Vaccinia mCherry -21% and VACV Venus inh -10%.

Grouped by structure: the entries above containing a thiophene ring, fused or not (2)
Screening O=C(CN1CCN(C(=O)c2cccs2)CC1)NC1CCCCC1 returned VACV Venus inh inconclusive.
For CCCCOC(=O)c1ccc(OC(=O)c2sc3ncn(Cc4cccc(F)c4)c(=O)c3c2C)cc1 the results were Vaccinia mCherry -5% and VACV Venus inh -8%.

The list continues:
For COc1ccc(NC(=O)Cn2ccc3c(OC)cccc3c2=O)cc1 the results were Vaccinia mCherry -5% and VACV Venus inh -7%.
Screening CCN(CC)C(=O)C(=O)c1cn(CC(=O)NCc2ccc3c(c2)OCO3)c2ccccc12 returned Vaccinia mCherry inactive and VACV Venus inh 8%.
Screening CC(=O)c1ccc(N2CCN(S(=O)(=O)c3csc(C(N)=O)c3)CC2)cc1 returned Vaccinia mCherry -19%[7.34 µM] and VACV Venus inh -3%[7.34 µM].
`COc1cccc(C=NNc2nnc(NN=Cc3cccc(OC)c3OC)c3ccccc23)c1OC` gave Vaccinia mCherry -5% and VACV Venus inh -5%.
COc1ccc(CN(CC2CCCO2)S(=O)(=O)c2ccc(-n3cnnn3)c(OC)c2)cc1 (stereo not drawn) was read as Vaccinia mCherry inactive and VACV Venus inh -8%.
`COC(=O)[C@@H]1CCCN1Cc1nc(Cc2ccccc2F)no1` gave Vaccinia mCherry inactive and VACV Venus inh -7%.
Screening CCN1CCN(Cc2ccc(NC(=O)Nc3ccc(SC)cc3)cc2)CC1 returned VACV Venus inh inconclusive.
Screening CCSc1ncc(C#N)c(N)n1 returned Vaccinia mCherry -10% and VACV Venus inh -8%.
For O=C(Nc1ccc2ccccc2c1)c1ccccc1Cl the results were Vaccinia mCherry inactive and VACV Venus inh -11%.
`CCn1ncc(/C=N/N=C2\CCC3C4CCc5cc(O)ccc5C4CCC23C)c1C` (stereo not drawn) gave VACV Venus inh -30%.

6 entries picked at random from the list so far:
For O=C(Nc1ccc2ccccc2c1)c1ccccc1Cl the results were Vaccinia mCherry inactive and VACV Venus inh -11%.
Screening CCN1CCN(Cc2ccc(NC(=O)Nc3ccc(SC)cc3)cc2)CC1 returned VACV Venus inh inconclusive.
Screening CCN(CC)C(=O)C(=O)c1cn(CC(=O)NCc2ccc3c(c2)OCO3)c2ccccc12 returned Vaccinia mCherry inactive and VACV Venus inh 8%.
Screening CCSc1ncc(C#N)c(N)n1 returned Vaccinia mCherry -10% and VACV Venus inh -8%.
`COc1cccc(C=NNc2nnc(NN=Cc3cccc(OC)c3OC)c3ccccc23)c1OC` gave Vaccinia mCherry -5% and VACV Venus inh -5%.
COc1ccc(CN(CC2CCCO2)S(=O)(=O)c2ccc(-n3cnnn3)c(OC)c2)cc1 (stereo not drawn) was read as Vaccinia mCherry inactive and VACV Venus inh -8%.

Continuation:
Screening C=CCOc1c(Br)cc(C2C3=C(CCCC3=O)N(C)C3=C2C(=O)CCC3)cc1OCC returned Vaccinia mCherry -14% and VACV Venus inh -6%.
Screening O=[N+]([O-])c1ccc(S(=O)(=O)Nc2ccc(-c3ccc(N4CCCC4)nn3)cc2)cc1 returned Vaccinia mCherry -16% and VACV Venus inh -20%.
`CS(=O)(=O)N1CCCC(C(=O)N2CCOCC2)C1` (stereo not drawn) gave Vaccinia mCherry inactive and VACV Venus inh 0%.
CCc1nnc(NC(=O)CSc2ccc(-c3ccc(C)cc3)nn2)s1 was read as Vaccinia mCherry -13% and VACV Venus inh -3%.
Screening C=CCCCCCCCCC(=O)Nc1ncccn1 returned Vaccinia mCherry -2% and VACV Venus inh 9%.
Screening CC1CCCN(C(=O)CCNS(=O)(=O)c2ccc(Br)cc2)C1 (stereo not drawn) returned Vaccinia mCherry -5% and VACV Venus inh -10%.
Screening Cc1ccc(CC2CC(=O)N(CCc3ccc4c(c3)OCO4)C2=O)cc1 (stereo not drawn) returned VACV Venus inh -19%.
Screening Cc1ccc(C(=O)NCc2cccnc2)cc1S(=O)(=O)Nc1ccccc1 returned Vaccinia mCherry -10% and VACV Venus inh -9%.
`Cc1ccc(CN2CC(N3CCN(C)CC3)CS2(=O)=O)cc1` (stereo not drawn) gave Vaccinia mCherry 15% and VACV Venus inh -6%.
CC(C)[C@H](NC(=O)OCc1ccccc1)C(=O)N[C@H](C=O)Cc1ccccc1 was read as Vaccinia mCherry inactive and VACV Venus inh -14%[60.7 µM].
For Cc1cc(/C=C/c2ccnc3ccccc23)ccc1N the results were Vaccinia mCherry -26% and VACV Venus inh -6%.
For CCCCn1c(Oc2cccc(C(=O)OC)c2)nc2c1c(=O)n(C)c(=O)n2C the results were Vaccinia mCherry inactive and VACV Venus inh 4%.
COc1cccc(C(O)c2nc(/C=C/c3ccc(C(F)(F)F)cc3)cs2)c1 (stereo not drawn) was read as Vaccinia mCherry 1% and VACV Venus inh -2%.
O=C(Nc1nc2ccccc2[nH]1)c1ccccc1[N+](=O)[O-] was read as Vaccinia mCherry -3% and VACV Venus inh -4%.
Screening CCOC(=O)N1CCN(C(=O)COC(=O)c2ccc(O)cc2O)CC1 returned Vaccinia mCherry inactive and VACV Venus inh -9%.
For CCC(C)n1c(SCc2ccc(C(C)(C)C)cc2)nc2ccsc2c1=O (stereo not drawn) the results were Vaccinia mCherry -1% and VACV Venus inh -13%.
For CC(N=c1ccccn1C(=O)Nc1ccc(Cl)cc1)c1ccco1 (stereo not drawn) the results were Vaccinia mCherry inactive and VACV Venus inh -11%.
`O=C(NNC(=O)c1cc(-c2ccccc2)nn1-c1ccccc1)c1ccccc1` gave Vaccinia mCherry inactive and VACV Venus inh -17%.
Screening CSc1nc2nc3c(cn2n1)C(=O)CC(c1ccccc1)C3 (stereo not drawn) returned Vaccinia mCherry -4% and VACV Venus inh -4%.
CC1(C2CC2)NC(=O)N(CC(=O)Nc2ccccc2C#N)C1=O (stereo not drawn) was read as Vaccinia mCherry inactive and VACV Venus inh -2%.
Screening COCc1cc(N2CCN(c3ccccc3F)CC2)nc(-c2ccccc2)n1 returned Vaccinia mCherry -11% and VACV Venus inh -1%.
CCC(C)N(C)C1CCN(C(=S)Nc2cccc(OC)c2)CC1 (stereo not drawn) was read as Vaccinia mCherry -11% and VACV Venus inh 6%.
For CCn1c(C)cc(C(=O)COC(=O)CNC(=O)c2ccco2)c1C the results were Vaccinia mCherry -15% and VACV Venus inh 10%.
Screening O=C(COc1ccc2c3c(c(=O)oc2c1)CCCC3)NCCCN1CCOCC1 returned Vaccinia mCherry -14% and VACV Venus inh -1%.
`COc1ccccc1/C=N/NC(=O)CSc1ccc2ccccc2n1` gave Vaccinia mCherry -12% and VACV Venus inh -18%.
Screening CC(=O)OC1COC(n2ccc3cc([N+](=O)[O-])ccc32)C(OC(C)=O)C1OC(C)=O (stereo not drawn) returned Vaccinia mCherry -16% and VACV Venus inh -4%.
`CC(C)(C)c1ccc(Cn2c(=O)cnc3ccccc32)cc1` gave Vaccinia mCherry inconclusive and VACV Venus inh -25%.
For COc1ccc(C(C)=O)cc1COc1cccnc1[N+](=O)[O-] the results were Vaccinia mCherry -5% and VACV Venus inh -14%.
For C=CCN1C(=O)C2(OCCCO2)c2ccccc21 the results were Vaccinia mCherry inactive and VACV Venus inh -8%.
CCOc1ccccc1CNC(=O)CC(C)n1ccc(C)n1 (stereo not drawn) was read as Vaccinia mCherry -4% and VACV Venus inh -7%.
Screening C/C=C/C1=CC(=O)C[C@H](c2ccc(OC)c(OC)c2)C1 returned Vaccinia mCherry -22% and VACV Venus inh -24%.
`COc1ccc2nc(N/C(N)=N/S(C)(=O)=O)nc(C)c2c1` gave Vaccinia mCherry -13% and VACV Venus inh -8%.
Screening Cc1cccc(-n2cnc3cc([N+](=O)[O-])ccc32)c1 returned Vaccinia mCherry -16% and VACV Venus inh -7%.
NC(=O)c1ccccc1NS(=O)(=O)c1cccs1 was read as Vaccinia mCherry -18% and VACV Venus inh -9%.
Screening COc1cccc(CNc2nc3nc(C)c(Cl)c(=O)n3[nH]2)c1 returned Vaccinia mCherry -14% and VACV Venus inh -13%.
`COC(C(=O)N/N=C(\C)c1ccc(C)cc1)c1ccccc1` (stereo not drawn) gave Vaccinia mCherry -1% and VACV Venus inh -7%.
`Cc1cc(Br)ccc1OCC(=O)NNC(=O)c1ccc(NC(=O)C2CC2)cc1` gave Vaccinia mCherry -5% and VACV Venus inh -12%.
`Cc1cccc(/N=C/c2c(O)ccc3oc4c(c23)CCCC4)n1` gave Vaccinia mCherry -16% and VACV Venus inh -26%.
For COc1ccc(-c2cc(=O)oc3c4c(ccc23)OCN(Cc2cccc(OC)c2)C4)cc1 the results were Vaccinia mCherry -24% and VACV Venus inh -10%.
Screening COC(=O)c1ccc(CSc2nc3c(c(=O)n2-c2ccc(F)cc2)SCC3)o1 returned Vaccinia mCherry -17% and VACV Venus inh inconclusive.
CC1(N=Cc2cc(Cl)ccc2O)COP(=O)(NC2CCCC2)OC1 (stereo not drawn) was read as Vaccinia mCherry -23% and VACV Venus inh -7%.
Screening NS(=O)(=O)c1ccc(CCNC(=O)Cc2c[nH]c3ccccc23)cc1 returned Vaccinia mCherry inactive and VACV Venus inh 0%.
